High-throughput results from PubChem BioAssay.
miR-21 FLuc: qHTS Assay for Modulators of miRNAs and/orActivators of miR-21; 340,000 tested, under 10 active; Potency, µM (highest dose often 38.3 µM), for inactives: at the top dose reporter change, positive = more light; AID 2288, 2010; HeLa miR-21 FLuc reporter, luciferase, 48 h; active = well fitted rising curve with a large enough effect; inconclusive = small, poorly fitted or top-dose-only effect; inactive = no such curve, though single readings can be large or run the other way;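 also: % of control where 0% means no effect; miR-21 action dims this reporter so a rising signal means less miR-21 action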
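Luminescence from a firefly luciferase reporter carrying a miR-21 binding site downstream, stably expressed under a CMV promoter in HeLa cells that make miR-21 endogenously, reports miRNA modulation after 48 h compound exposure up to approximately 40uM final.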
Rango complex inh: qHTS Assay for Inhibitors of Rango (Ran-regulated importin-beta cargo) - Importin beta complex formation. Rango CFP/YFP FRET sensor + importin beta, 45 min. Importin subunit beta-1 (Homo sapiens), Q14974. 0.031% of 340,000 active. Potency, µM (top dose mostly 92.2 µM), for inactives: at the highest dose inhibition of complex formation; active = rising FRET ratio curve, often small or poorly fitted; inconclusive = mostly compound fluorescence or quenching in the first reads; inactive = flat curves in all reads;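 also: potency is read from the fitted curve at half-maximal effect; 0% = DMSO wells and 100% = buffer wells lacking importin beta; nearly all actives have a fitted effect of over 15% in size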
Target sequence (Q14974 whole entry, looked up): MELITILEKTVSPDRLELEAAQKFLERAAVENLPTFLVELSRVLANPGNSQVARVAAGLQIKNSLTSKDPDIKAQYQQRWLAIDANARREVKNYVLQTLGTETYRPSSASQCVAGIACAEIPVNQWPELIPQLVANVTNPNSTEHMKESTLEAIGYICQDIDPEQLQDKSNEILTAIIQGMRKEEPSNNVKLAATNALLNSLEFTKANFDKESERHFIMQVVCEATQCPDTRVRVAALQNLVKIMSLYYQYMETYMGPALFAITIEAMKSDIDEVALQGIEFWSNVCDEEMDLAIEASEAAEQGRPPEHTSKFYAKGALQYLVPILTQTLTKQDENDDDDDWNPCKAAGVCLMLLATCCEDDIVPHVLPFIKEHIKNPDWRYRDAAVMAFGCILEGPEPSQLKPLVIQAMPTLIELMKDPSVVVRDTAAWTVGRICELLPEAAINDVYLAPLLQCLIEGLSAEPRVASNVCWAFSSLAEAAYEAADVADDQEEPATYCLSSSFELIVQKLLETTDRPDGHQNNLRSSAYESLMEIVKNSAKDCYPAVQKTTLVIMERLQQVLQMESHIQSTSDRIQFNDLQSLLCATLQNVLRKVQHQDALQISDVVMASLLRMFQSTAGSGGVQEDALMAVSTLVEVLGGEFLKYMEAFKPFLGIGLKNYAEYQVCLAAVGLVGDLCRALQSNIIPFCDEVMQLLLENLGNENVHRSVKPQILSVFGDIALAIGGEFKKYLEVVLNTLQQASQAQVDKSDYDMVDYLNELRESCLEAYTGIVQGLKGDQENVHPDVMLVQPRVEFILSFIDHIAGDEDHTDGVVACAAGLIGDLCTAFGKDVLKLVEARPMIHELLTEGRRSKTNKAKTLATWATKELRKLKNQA
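Inhibition scored from the CFP 486 nm/YFP 530 nm FRET ratio 45 min after adding 0.125 microM importin beta to 50 nM Rango biosensor preincubated 5 min with compound (room temperature, PBS with DTT, Tween-20, BSA). No-importin wells as positive control.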
GLA inh pH 4.5: qHTS Assay for Inhibitors of Human alpha-Galactosidase at pH 4.5; Alpha-galactosidase A (Homo sapiens), P06280; purified enzyme, 4-MU-alpha-Gal fluorescence, pH 4.5; activity change, negative = inhibition, % at 105 µM; 230,000 tested, under 10 active; AID 1467, 2008; inconclusive = small, poorly fitted or top-dose-only inhibition, or a rising curve; inactive = flat fitted curve, though single readings scatter; no compound was filed as active;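 also: 0% = full activity with enzyme and -100% = basal without enzyme; dose as in the result columns while the protocol names 77 µM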
Rango dissoc inh: qHTS Assay for Inhibitors of RanGTP induced Rango (Ran-regulated importin-beta cargo) - Importin beta complex dissociation; Biochemical FRET Rango-importin beta, RanGTP-induced dissociation; AID 540253, 2011; Snurportin-1 (Homo sapiens) + GTP-binding nuclear protein Ran (Homo sapiens) + Importin …; 0.071% of 340,000 active; Potency, µM (highest dose often 46.1 µM), for inactives: at the top dose activity change, negative = inhibition; active means falling FRET ratio curve, often poorly fitted, with flat reads before Ran was added; inconclusive means other falling curves, or compound fluorescence or quenching; inactive means flat or rising ratio curve;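 also: potency is read from the fitted curve at half-maximal effect; % of control where 0% means no effect; nearly all actives have a fitted effect of over 45% in size; -100% = wells without RanGTP and RCC1; the record marks most hits as doubtful in a second field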
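FRET read at 45 min, room temperature: inhibitors block the CFP/YFP signal rise when RanGTP (0.6 uM Ran, 2 mM GTP, 0.2 uM RCC1) frees Rango (0.1 uM) from importin beta (0.25 uM). Pre-read after 5 min compound exposure flags interference.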
Numbers without * were called inactive; & = joins results of further samples. These rows are one share of the data; count on the stated rates, not on these rows.

Screening CCCCC[C@H]1CN(Cc2ccccc2)C(=O)[C@@H]1CC(=O)NCc1ccc(OC)cc1 returned miR-21 FLuc 11%, Rango complex inh -1.1% and Rango dissoc inh -6%.
CCn1ncc(/C=C/C(=O)NCc2cn(C)nc2C)c1C was read as miR-21 FLuc -9%, Rango complex inh -3.2%, GLA inh pH 4.5 7 and Rango dissoc inh 21%.
`CC(=O)C1=C(O)C(=O)N(CCc2c[nH]c3ccccc23)C1c1cccc(O)c1` (stereo not given) gave miR-21 FLuc 2%, Rango complex inh -0.9%, GLA inh pH 4.5 2 and Rango dissoc inh 4%.
Screening Cc1ccc(S(=O)(=O)N2CCOC2CNC(=O)C(=O)NCc2ccc3c(c2)OCO3)cc1 (stereo not given) returned miR-21 FLuc 5%, Rango complex inh -0.5% and Rango dissoc inh 0%.
O=C(O)c1cccc(Nc2ncnc3ccccc23)c1 was read as miR-21 FLuc -6%, Rango complex inh -0.4%, GLA inh pH 4.5 2 and Rango dissoc inh -12%.
`CCC(C(=O)Nc1cccnc1)c1ccccc1` (stereo not given) gave miR-21 FLuc 0%, Rango complex inh 2.4% and Rango dissoc inh 0%.
Screening CN(CCC#N)C(=O)COC(=O)/C=C/c1cccs1 returned miR-21 FLuc 0%, Rango complex inh -0.9%, GLA inh pH 4.5 6 and Rango dissoc inh -8%.
Screening O=C1c2cccc3c(O)ccc(c23)C(=O)N1Cc1ccco1 returned miR-21 FLuc -2%, Rango complex inh inconclusive, GLA inh pH 4.5 4 and Rango dissoc inh inconclusive.
`O=c1[nH]ncc2c3ccccc3n(Cc3cccc(Cl)c3)c12` gave miR-21 FLuc -5%, Rango complex inh inconclusive, GLA inh pH 4.5 -1 and Rango dissoc inh 5%.
For Cc1ccc(/C=C/C(=O)N2CCN(S(=O)(=O)c3ccc(C)c(C)c3)CC2)o1 the results were miR-21 FLuc -3%, Rango complex inh -2.3%, GLA inh pH 4.5 -2 and Rango dissoc inh -15%.
`OCCN1CN=C(Nc2nc3ccccc3s2)NC1` gave miR-21 FLuc -14%, Rango complex inh -1.9%, GLA inh pH 4.5 -1 and Rango dissoc inh 3%.
For Cc1cnc(C(=O)OCC(=O)Nc2c(Cl)cc(Cl)cc2Cl)cn1 the results were Rango complex inh -0.9% and Rango dissoc inh 4%.
CC1CCCN(S(=O)(=O)c2cccc(-c3cn4cccnc4n3)c2)C1 (stereo not given) was read as miR-21 FLuc -3%, Rango complex inh -0.5%, GLA inh pH 4.5 6 and Rango dissoc inh 11%.
Screening C/C(=N\N=C\c1cccc(F)c1)c1nnn(-c2nonc2N)c1C returned miR-21 FLuc -13%, Rango complex inh -0.1%, GLA inh pH 4.5 1 and Rango dissoc inh -11%.
`CC1CCCC(NC(=O)CSc2nnc(-c3cccnc3)n2N)C1C` (stereo not given) gave Rango complex inh -3.5% and Rango dissoc inh -9%.

Molecules from the list above containing a furan ring, fused or not, in the order listed:
Screening O=C1c2cccc3c(O)ccc(c23)C(=O)N1Cc1ccco1 returned miR-21 FLuc -2%, Rango complex inh inconclusive, GLA inh pH 4.5 4 and Rango dissoc inh inconclusive.
For Cc1ccc(/C=C/C(=O)N2CCN(S(=O)(=O)c3ccc(C)c(C)c3)CC2)o1 the results were miR-21 FLuc -3%, Rango complex inh -2.3%, GLA inh pH 4.5 -2 and Rango dissoc inh -15%.

Further entries:
`COc1ccc(C2C(C(=O)c3ccc(C)o3)=C(O)C(=O)N2Cc2cccnc2)cc1` (stereo not given) gave miR-21 FLuc -4%, Rango complex inh -2.0% and Rango dissoc inh -6%.
Cc1cnc(C(=O)OCC(=O)N(CC(C)C)C2CCS(=O)(=O)C2)cn1 (stereo not given) was read as Rango complex inh 6.7% and Rango dissoc inh 2%.
For Cc1ccc(S(=O)(=O)N2CCN(C(=O)COC(=O)/C=C/c3ccccc3)CC2)c(C)c1 the results were Rango complex inh -4.1% and Rango dissoc inh 13%.
`CCN(C(=O)COC(=O)c1ccc(SC)cc1OC)C1CCS(=O)(=O)C1` (stereo not given) gave Rango complex inh -0.8% and Rango dissoc inh 15%.
For O=C(Nc1ccc(C(F)(F)F)cc1)c1ccccc1Br the results were miR-21 FLuc -45%, Rango complex inh -2.6%, GLA inh pH 4.5 -1 and Rango dissoc inh -14%.
Screening COC(=O)C1CCN(C(=O)COC(=O)c2oc3ccc(OC)cc3c2C)CC1 returned miR-21 FLuc 0%, Rango complex inh -0.8% and Rango dissoc inh -4%.
For Cc1cccc(C)c1NC(=O)C(C)Sc1n[nH]c(-c2ccncc2)n1 (stereo not given) the results were miR-21 FLuc 2%, Rango complex inh -0.2% and Rango dissoc inh -15%.
For COc1ccc([C@@H]2CC=C(C(=O)O)[C@H](c3cccc(Cl)c3)N2S(=O)(=O)c2ccccc2C)cc1 the results were Rango complex inh -4.8% and Rango dissoc inh -2%.
Cc1ccc(-c2noc(C3CCCN(C(=O)c4c(F)cccc4F)C3)n2)cc1 (stereo not given) was read as miR-21 FLuc 2%, Rango complex inh 3.3%, GLA inh pH 4.5 -1 and Rango dissoc inh -7%.
For CON(C)c1nc(OCCNC(=O)COc2ccc(Cl)cc2C)nc(N(C)C)n1 the results were miR-21 FLuc 2%, Rango complex inh -1.3%, GLA inh pH 4.5 -6 and Rango dissoc inh 13%.
COc1ccc([C@@H](OC)[C@@]2(Cc3ccc(O)cc3)N=C(N)N(C)C2=O)cc1 was read as Rango complex inh 5.0% and Rango dissoc inh 1%.
COc1ccc(NS(=O)(=O)c2cc(NC(=O)C3CC3)ccc2N2CCCCC2)cc1 was read as miR-21 FLuc 16%, Rango complex inh -3.3%, GLA inh pH 4.5 -6 and Rango dissoc inh 0%.
COc1ccc(CCNc2c(C=O)c(=O)[nH]c3ccccc23)cc1OC was read as miR-21 FLuc -6%, Rango complex inh -0.1% and Rango dissoc inh 34%.
For CC(C)CNC(=S)Nc1ccccc1F the results were miR-21 FLuc -5%, Rango complex inh -5.5%, GLA inh pH 4.5 6 and Rango dissoc inh -17%.
`Cc1cccc(C)c1NC(=O)CNC(=O)c1ccc2nc[nH]c2c1` gave Rango complex inh -0.6% and Rango dissoc inh -1%.
Screening COc1ccc(NC(=O)/C=C2\SC(=O)NC2=O)cc1 returned miR-21 FLuc -15%, Rango complex inh -3.1%, GLA inh pH 4.5 -8 and Rango dissoc inh 13%.
`CC(Oc1cccc([N+](=O)[O-])c1)C(=O)NCCC1=CCCCC1` (stereo not given) gave Rango complex inh -0.3% and Rango dissoc inh 7%.
For CCOC(=O)C1CCCN(C(=O)CCc2nnc(-c3ccc(C(C)=O)s3)o2)C1 (stereo not given) the results were miR-21 FLuc -65%, Rango complex inh -6.2% and Rango dissoc inh -3%.
CCOC(=O)C(=O)NCC(c1cccs1)S(=O)(=O)c1ccc(Cl)cc1 (stereo not given) was read as miR-21 FLuc -20%, Rango complex inh -0.6% and Rango dissoc inh 3%.
Screening Cc1cc(C)nc(SCc2cn3ccccc3n2)n1 returned miR-21 FLuc -26%, Rango complex inh 6.7%, GLA inh pH 4.5 0 and Rango dissoc inh 7%.
O=C(CCc1nnc(Cc2ccc3c(c2)OCO3)o1)NC(c1ccccn1)C(F)(F)F (stereo not given) was read as miR-21 FLuc -5%, Rango complex inh -2.9%, GLA inh pH 4.5 -9 and Rango dissoc inh 11%.
O=C(COC(=O)CCC(=O)c1ccccc1)Nc1nnc(-c2ccccc2)o1 was read as Rango complex inh -2.7% and Rango dissoc inh 14%.
Screening O=C(Cn1cc2c(n1)CCCC2)N1CCOCC1 returned miR-21 FLuc 0%, Rango complex inh -0.3%, GLA inh pH 4.5 3 and Rango dissoc inh -1%.
Screening O=C(Cn1c(=O)c2cccn2c2ccc(F)cc21)N1CCN(c2ccc(F)cc2)CC1 returned miR-21 FLuc -4%&-8%, Rango complex inh 3.3% and Rango dissoc inh 1%.
Cc1ccc(C(=O)N/N=C/C=C/c2ccccc2)cc1 was read as miR-21 FLuc -36%, Rango complex inh 0.2%, GLA inh pH 4.5 -4 and Rango dissoc inh -1%.
For COc1nccnc1NS(=O)(=O)c1ccc(N=Cc2c(C)[nH]n(-c3ccc(C)c(C)c3)c2=O)cc1 the results were miR-21 FLuc -11%, Rango complex inh 1.5%, GLA inh pH 4.5 -1 and Rango dissoc inh 7%.
Cc1ccc(C)c(CN2CCC(CNC(=O)Nc3cccc(Cl)c3C)CC2)c1 was read as miR-21 FLuc 0%, Rango complex inh -0.1% and Rango dissoc inh -2%.
Cc1c(C)c2ccc(OCC(=O)N3CC[C@@]4(O)CCCC[C@H]4C3)c(C)c2oc1=O was read as miR-21 FLuc -3%, Rango complex inh 1.8% and Rango dissoc inh -1%.
For CCOc1ccc(N2CC(C(=O)Nc3ccccn3)CC2=O)cc1 (stereo not given) the results were miR-21 FLuc 1%, Rango complex inh 0.6%, GLA inh pH 4.5 -1 and Rango dissoc inh 9%.
For COC(=O)c1ccccc1CSc1nsc(C)c1C#N the results were miR-21 FLuc -5%, Rango complex inh -1.5% and Rango dissoc inh 1%.
For CC(C)C(=O)Nc1cccc(NC(=S)NC(=O)c2ccccc2Cl)c1 the results were miR-21 FLuc -7%, Rango complex inh -1.1%, GLA inh pH 4.5 2 and Rango dissoc inh 14%.
For O=C(O)c1cc(S(=O)(=O)NC(CO)C(O)c2ccc([N+](=O)[O-])cc2)ccc1Br (stereo not given) the results were miR-21 FLuc -5%, Rango complex inh -0.6% and Rango dissoc inh -18%.
Screening COc1ccc(F)cc1S(=O)(=O)NCCN1CCOCC1 returned miR-21 FLuc 0%, Rango complex inh 6.4% and Rango dissoc inh -7%.
For Cc1cc(N2C(=O)C(=O)/C(=C(/O)c3ccc(F)cc3)C2c2cccc(Br)c2)no1 (stereo not given) the results were miR-21 FLuc -4%, Rango complex inh -1.0%, GLA inh pH 4.5 1 and Rango dissoc inh 0%.
CCCOC(=O)COC(=O)c1ccccc1NC(=O)c1ccccc1 was read as miR-21 FLuc 0%, Rango complex inh -8.1%, GLA inh pH 4.5 -12 and Rango dissoc inh 2%.
For CCc1ccc(OCC(=O)N2CC(C(N)=O)Oc3ccccc32)cc1 (stereo not given) the results were miR-21 FLuc -8%, Rango complex inh -6.1% and Rango dissoc inh 27%.
For O=S(=O)(Nc1ncnc2c1oc1ccccc12)c1ccc(Cl)s1 the results were miR-21 FLuc -21%, Rango complex inh -1.1%, GLA inh pH 4.5 -2 and Rango dissoc inh -8%.
Cn1c(C(=O)OC(C(=O)NC2CCCCC2)c2cccnc2)cc2sccc21 (stereo not given) was read as miR-21 FLuc -2%, Rango complex inh -0.7%, GLA inh pH 4.5 -3 and Rango dissoc inh -1%.
For COC(=O)c1sccc1NC(=O)CC1C(=O)NCCN1C(=O)Nc1ccc(F)cc1F (stereo not given) the results were miR-21 FLuc 0%, Rango complex inh 3.3%, GLA inh pH 4.5 -2 and Rango dissoc inh -17%.
`Cn1c(SCC(=O)NC2CC2)nnc1C1CC1` gave miR-21 FLuc 2%, Rango complex inh 0.1% and Rango dissoc inh 5%.
Screening CC(C)c1ccc(-n2nc3ccc(N)cc3n2)cc1 returned miR-21 FLuc -30%, Rango complex inh inconclusive, GLA inh pH 4.5 14 and Rango dissoc inh inconclusive.
`O=C1c2ccccc2C(=O)N1CCCCSc1nnc2ccccn12` gave miR-21 FLuc -13%, Rango complex inh 0.0%, GLA inh pH 4.5 8 and Rango dissoc inh 9%.
Screening N#Cc1c(NC(=O)c2ccc(Cn3cc(Br)cn3)o2)sc2c1CCCCCC2 returned miR-21 FLuc 13%, Rango complex inh -1.5%, GLA inh pH 4.5 -15 and Rango dissoc inh -5%.
Screening O=C(NC(C(=O)N/N=C/c1cc([N+](=O)[O-])ccc1O)c1n[nH]c(=O)c2ccccc12)c1ccccc1 (stereo not given) returned miR-21 FLuc 0%, Rango complex inh inconclusive and Rango dissoc inh 16µM*.
